# CapD inh: CapD enzyme inhibition. AID 492967. purified CapD enzyme, fluorescence intensity read-out; hits give low values; some hits fall short of the stated cut. 140,000 tested, 0.23% active. z-score (concentration not given with the values);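 active means z-score under -4 in either of two replicates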;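 further: stock transfer was 100 nL into about 40 µL; score is relative to mean and spread of the plate; one replicate is shown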
# AID504770: growth inhibitors of E. coli YBA685 in a screen for V. cholerae RctB (chromosome II replication) inhibitors; E. coli YBA685 rctB-dependent plasmid, OD600 growth, 3 h; hits give low values; z-score (no concentration beside the values); 130,000 tested, 0.27% active;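 active means z-score under -2 on both plates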;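 further: wells of about 30 µL received 100 nL stock; score is relative to mean and SD of the test wells; the first replicate is given; strong numbers were not always called active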
# * marks the source's active call; other numbers are inactive results; x = not tested or not shown.
molecule,CapD inh,AID504770
CC(C)N(C(=O)CC1ON(C)C(=O)N1c1ccc(Cl)cc1)C(C)C (centres undefined),-0.065,x
Cc1nnc(C)n1/N=C/C=C/c1ccccc1,x,-0.85
Cc1oc2cc(OCC#N)ccc2c(=O)c1-c1ccc2c(c1)OCCCO2,-0.625,1.35
CC1(C)CCCN(S(=O)(=O)c2ccc(Cl)c(Cl)c2)C1,-1.11,x
COc1ccc(O)c(C2=Nc3ccccc3N=C(c3cccc(C)c3)C2)c1,-1.29,x
Cc1ccc(C2=NC(CC(C)C)NC(c3ccccc3O)C2)cc1 (centres undefined),-0.5,-0.45
Oc1c(Br)cc(CN2CCOCC2)c2cccnc12,-3.9,-1.05
O=c1c2ccccc2n2c(-c3ccsc3)nnc2n1CCc1ccccc1,1.47,0.1
O=C(N/N=C/c1c(F)cccc1F)c1cc2ccccc2cc1O,-0.11,x
CC(=O)NCCn1c(SCc2cc(F)ccc2F)nc2ccccc2c1=O,0.29,0.25
Nc1ccc(Oc2ccc(Cl)cc2Cl)nc1,1.4,x
CC1CN(C2=NC(=O)/C(=C/c3ccccc3)S2)CC(C)O1 (centres undefined),0.99,-0.65
O=C1SC(=S)N/C1=C/c1cccc(O)c1,-2.25,1.2
COc1cc(OC)cc(N2CCN(C(=O)OCCN3CCN(Cc4ccc(Oc5ccccc5)cc4)CC3)CC2)c1,0.085,x
CCCCCNc1nc(C(C)C)c2c(c1C#N)CC(C)(C)OC2,36.9,0.55
O=C(Cc1ccccc1)NC1(C(=O)Nc2cccc(Cl)c2)CCCCC1,-0.185,0.2
CN(CC(=O)Nc1ccc(N2CCOCC2)cc1)Cc1cc(=O)n2ccsc2n1,x,-0.4
CN(C)c1sc(C(=O)c2ccccc2)cc1-c1ccccc1,-0.275,-0.8
CN1CCN(c2nc(NCc3ccccc3)c3ccccc3n2)CC1,37.7,x
O=c1[nH]c2ccc(Cl)cc2c(-c2ccccc2)c1CN1CCCCC1,0.3,0.55
CCOc1ccccc1N/C=C/C(=O)C(C)(C)C,0.085,-0.9
Cc1cc(N2CCN(C)CC2)ccc1NC(=O)CNC(=O)C12CC3CC(CC(C3)C1)C2,x,-0.4
O=C1c2ccccc2-c2onc3ccc(N4CCOCC4)c1c23,0.495,0.5
O=C(N/N=C/c1ccc(Oc2ccccc2)cc1)c1cccc([N+](=O)[O-])c1,0.395,x
CCCCCCCCOc1ccc(C2Nc3cc(C)ccc3C(=O)CS2)cc1 (centres undefined),-0.575,x

# Gathered by group, those above with four or more nitrogen atoms
molecule,CapD inh,AID504770
Cc1nnc(C)n1/N=C/C=C/c1ccccc1,x,-0.85
O=c1c2ccccc2n2c(-c3ccsc3)nnc2n1CCc1ccccc1,1.47,0.1
COc1cc(OC)cc(N2CCN(C(=O)OCCN3CCN(Cc4ccc(Oc5ccccc5)cc4)CC3)CC2)c1,0.085,x
CN(CC(=O)Nc1ccc(N2CCOCC2)cc1)Cc1cc(=O)n2ccsc2n1,x,-0.4
CN1CCN(c2nc(NCc3ccccc3)c3ccccc3n2)CC1,37.7,x
Cc1cc(N2CCN(C)CC2)ccc1NC(=O)CNC(=O)C12CC3CC(CC(C3)C1)C2,x,-0.4

# (listing goes on)
molecule,CapD inh,AID504770
CC1CN(C(=O)c2ccccc2)OC(c2ccc3c(c2)OCO3)O1 (centres undefined),-1.05,0.8
O=C(CSc1ccccn1)NC1CCCC1,x,1.1
CNC(=O)c1cccc(Oc2ccccc2)c1,-0.625,1.35
Cc1cc(=O)[nH]c(N2CCc3ccccc3C2)n1,0.385,0.85
O=C1NC(=O)C(Cc2ccccc2)N1 (centres undefined),-0.42,-0.9
CCN(CC)CC#CC1(O)CCCCC1,x,2.85
CCN(CC)CCNc1nc2c(c(=O)[nH]c(=O)n2C)n1CC(O)COc1ccc(Cl)cc1Cl (centres undefined),-0.1,x
O=C(Nc1ccccc1C(=O)Nc1nccs1)c1ccccc1,7.21,x
CN(Cc1nc(-c2ccccc2)no1)C(=O)c1ccccc1,0.17,-0.55
COc1ccc(N2CCc3c(Cl)nc(SC)nc32)cc1,-0.11,x
Cc1cccc(S(=O)(=O)N2CCN(c3ccc(C(F)(F)F)cn3)CC2)c1,0.795,x
O=C1C=C(Nc2ccccc2)C(=O)c2ccccc21,0.15,1.4
O=C(CSC1CC(=O)N(c2ccccc2)C1=O)Nc1ccccc1 (centres undefined),0.31,-0.15
O=c1[nH]ccc2c(OCc3ccccn3)cccc12,x,0.4
Clc1cccc(CNc2ccc3nnc(-c4ccccc4)n3n2)c1,-0.21,-0.5
CSc1nc2c(cc1C#N)CCCCC2,3.79,0.4
Cc1ccc(SCc2nc3ncccn3c2Br)cc1,2.48,3.6
CCOC(=O)c1ccc2nc(C(F)(F)F)nc(N3CCCCC3)c2c1,-2.11,-0.35
C(=Nc1cccnc1)c1ccccc1,9.72,0
CCc1nnc(SCc2ccccc2)c2cc3occc3n12,-0.02,1.75
CC12CC(NC(=O)N1Cc1ccccc1)c1ccccc1O2 (centres undefined),-0.66,1.65
CN(CCOc1ccc(Cl)cc1)c1nn(C)c(=O)n(C)c1=O,x,0.15
Cc1nsc(N)c1C(=O)OCc1c(F)cccc1Cl,x,0.55
Cc1cccc(OCc2nc(-c3ccccc3)no2)c1,-1.03,0.4
COc1ccc(-c2noc(CSc3nc4ccc(C)cc4[nH]3)n2)c(OC)c1,0.34,0.05
O=c1c(=O)n(Cc2cccc(F)c2)ccn1Cc1ccccc1,0.52,0.7
CC(=O)Oc1ccc2c3c(c(=O)oc2c1)CCC3,26.7,0.4
CCn1c(C(=O)NCCc2ccccc2)cc2oc3ccccc3c21,0.935,2.5
O=C1CC(c2ccccc2)CN1 (centres undefined),-0.01,-0.35
CN1C(=O)C(C)(C)c2cc(S(=O)(=O)N(C)Cc3ccccc3)ccc21,0.01,0.8
O=C(c1ccc(S(=O)(=O)N2CCCC2)cc1)N1CCc2ccccc21,1.65,0.65
O=[N+]([O-])c1ccc(N2CCN(S(=O)(=O)c3ccc(Cl)cc3)CC2)nc1,-0.145,x
O=C(Nc1ccccc1)Nc1ccc(S(=O)(=O)Nc2ccc(F)cc2)cc1,-0.13,0.75
O=S(=O)(c1ccccc1)C1CC1(Cl)Cl (centres undefined),-0.68,-0.5
Cc1ccccc1Cn1cc(CCCC(=O)O)c2ccccc21,0.85,1.1
CC(=O)NC1CC2CCC(C1)N2Cc1ccc(C)cc1 (centres undefined),x,-0.6
COC(=O)c1c2c(c3ccccc3c1-c1ccccc1)OC(c1ccc(OC)cc1)(c1ccc(OC)cc1)C=C2,0.13,x
COc1ccccc1CCOC(=O)NC(c1ccccc1)c1ccc(Cl)cc1 (centres undefined),-0.03,x
NC(=O)C1CC12c1ccccc1-c1ccccc12 (centres undefined),-1.01,2.45
COc1cccc(CNS(=O)(=O)c2ccc3[nH]c(=O)ccc3c2)c1,-0.175,0
CCc1nc2ccccc2n1Cc1cccc(S(=O)(=O)N2CCOCC2)c1,x,-0.3
O=C(Nc1ccc(S(=O)C(F)(F)F)cc1)c1ccccn1 (centres undefined),x,-0.15
CC(=O)C1=NN(c2ccc(Cl)cc2)C(c2cccs2)N1c1ccc(C)cc1 (centres undefined),-0.195,x
CCCn1c(N)c(C(=O)CSc2ccc3c(c2)OCCO3)c(=O)[nH]c1=O,x,-0.1
Cc1ccc2c(c1)nnn2C1CCN(C(=O)c2ccccc2)CC1,x,-0.25
COc1ccc(CS(=O)(=O)CC(C)(O)c2ccc(Cl)cc2)cc1 (centres undefined),-0.695,x
Cc1nonc1CC(=O)O,-0.04,-0.05
C#CCOc1ccc(/C=C(/C#N)c2ccc(C(=O)O)cc2)cc1OC,-0.345,-0.45
Nn1c(SCc2cc(=O)n3cc(Br)ccc3n2)nnc1C1CCCCC1,x,1
O=C(NCCc1ccc(Cl)cc1)C12CC3CC(CC(C3)C1)C2,-0.255,-0.5

# Compound profiles, as listed above:
# `O=C(NCCc1ccc(Cl)cc1)C12CC3CC(CC(C3)C1)C2` as listed: CapD inh: -0.255; AID504770: -0.5
# `C#CCOc1ccc(/C=C(/C#N)c2ccc(C(=O)O)cc2)cc1OC` as listed: CapD inh: -0.345; AID504770: -0.45

# Continued.
molecule,CapD inh,AID504770
CCOc1cc(/C=C2\C(=O)NC(=O)N(c3ccc4c(c3)OCO4)C2=O)cc(Br)c1OC,0.225,x
COc1ccc(C(=O)NCc2nnc(SCC(=O)N3N=C(c4cccs4)CC3c3ccc(F)cc3)n2C)cc1 (centres undefined),13.6,x
Cc1ccccc1-c1nnc(CN2CCCC2)o1,0.72,0.55
COC(=O)c1cc(NC(=O)c2oc(=O)c3ccccc3c2-c2ccc(C)cc2)cc(C(=O)OC)c1,-0.18,0.7
O=C(Nc1ccc2nc(NC(=O)c3ccc(Br)cc3)sc2c1)c1ccc(Br)cc1,0.18,x
O=C(O)c1cccc(-c2ccc(/C=C3\Sc4ccccc4C3=O)o2)c1,-0.59,0.1
OC1(c2ccccc2)CCOCC1,-0.42,x
C=CCOc1ccc(C2Nc3ccccc3-c3nnc(SCCC)nc3O2)cc1 (centres undefined),-0.03,x
CCOc1ccc(S(=O)(=O)NC(C)C)cc1,1,1.35
Cc1cc(=O)oc2cc(NC(=O)c3ccc4c(c3)S(=O)(=O)N=C3CCCCCN34)ccc12,x,-0.3
CSc1sc(-c2[nH]ncc2Br)c2c1C(=O)CC(C)(C)C2,-0.72,1
O=C(Nc1c2c(nn1-c1cccc(Cl)c1)CS(=O)C2)C1CCCC1 (centres undefined),-0.325,0.95
CN(CC(=O)Nc1ccc(N2CCOCC2)cc1)CC(=O)Nc1ccc2c(c1)OCO2,x,-0.2
COCCn1c(COc2cccc(OC)c2)nnc1SCC(=O)NC1CCCC1,x,-0.6
O=C(Oc1c(Br)cc(C(F)(F)F)cc1[N+](=O)[O-])c1ccccc1Cl,-0.15,x
Cc1c(C(=O)O)oc2c1C(=O)CCC2,1.72,0.4
CC1(C)CC(=O)N(CC(=O)Nc2ccc3c(c2)OCCO3)c2ccccc2S1(=O)=O,0.32,0.7
Cc1ccc(CCNC(=O)c2cc3c(=O)[nH]c4ccc(C)cc4c3s2)cc1,-1.29,0
CC12CCC3C(CC=C4CC(OC5CCCCO5)CCC43C)C1CCC2=O (centres undefined),0.075,0.6
CCN(Cc1nc2ccccc2c(=O)[nH]1)C(=O)Nc1ccc(Cl)cc1,x,-0.25
Cc1ccc(C2C(C#N)=C(N)SC(N)=C2C#N)c(C)c1,x,-0.55
COc1ccc(C(=O)c2c(C)c3ccccc3n2CC(O)CNC(C)C)cc1 (centres undefined),-1.8,0
COc1ccc(Nc2ssc(=O)c2Cl)cc1OC,x,1.45
CN(CC(=O)Nc1ccccc1Br)c1ncnc2sccc12,x,-0.6
O=C(NNC(=S)NC1CC2C=CC1C2)c1ccncc1 (centres undefined),-1.2,x
CCN(CC)CCn1c(OC)cc(=O)[nH]c1=O,-0.23,0.25
O=C(c1ccc(F)cc1F)C1CCN(S(=O)(=O)c2ccc(F)cc2F)CC1,-0.7,0.95
Clc1ccc(C2Nc3ccccc3-c3nc4ccccc4n32)cc1 (centres undefined),84.6,x
COC(=O)C1=C(O)c2ccccc2S(=O)(=O)N1,-1.31,-0.4
Cc1ccc(C(=O)Oc2cccc3cccnc23)cc1S(=O)(=O)N1CCC(C)CC1,-0.635,x
Cc1ccc(Oc2c(C)nc(C)nc2OC(=O)N(C)C)cc1,8.88,-0.55
CCC(C)NS(=O)(=O)c1ccc(C)cc1C (centres undefined),x,-0.45
Nc1ccccc1SCC(O)COc1cccc(C(F)(F)F)n1 (centres undefined),-1.05,-0.45
CCOc1ccc2c(c1)C(=C1SC(C(=O)OC)=C(C(=O)OC)S1)C(=S)C(C)(C)N2C(=O)c1ccc(-c2ccccc2)cc1,-0.93,x
Cc1ccc2nsnc2c1S(=O)(=O)NC1CC1,-0.365,0.15
CCOC(=O)c1c(C)sc2c3c([nH]c12)CCCC3,16.2,0
N[C@H]1CONC1=O,-0.675,x
O=C1N=C(N2CCN(c3ccccc3)CC2)SC1Cc1ccccc1 (centres undefined),x,-0.95
COc1ccc(C)cc1S(=O)(=O)N1CCN(c2ccccc2)CC1,0.575,-0.95
O=C(NC1CCN(Cc2ccccc2Cl)CC1)c1ccccc1,0.525,0.1
CNC(=O)COc1ccc(Nc2nnc(-c3ccc(C)c(S(=O)(=O)NC(C)C)c3)c3ccccc23)cc1,-0.01,x
C=CCn1c(=O)/c(=C/c2sccc2C)s/c1=C(/C#N)C(=O)NCc1ccco1,x,0.55
NC(CO)CSCc1ccccc1 (centres undefined),0.37,0.05
COc1cc2c(cc1OC)C(c1ccccc1)N(C(=O)COC(=O)C1=NNC(=O)CC1)CC2 (centres undefined),x,-1.1
CC1CCCC(C)N1C(=O)COC(=O)c1ccccc1I (centres undefined),-0.395,1.25
N#Cc1cccc2c1NC(c1cccc(Cl)c1Cl)C1CC=CC21 (centres undefined),6.05,x
CCOc1ccc([C@@H]2[C@H](C(=O)O)c3ccccc3C(=O)N2Cc2ccccc2)c(O)c1,x,0.3
Cc1ccc(-c2csc3nc(C)n(-n4cccc4)c(=O)c23)o1,5.95,-0.6
O=S(=O)(NCCC1=CCCCC1)c1cccc2nsnc12,-0.505,x
C/C(Cl)=C\Cn1c(SCC(N)=O)nc2c1c(=O)[nH]c(=O)n2C,0.07,x
Cc1ccc2[nH]c(=O)c(-c3noc(C(C)C)n3)cc2c1,70.7,-0.55
Cn1c(=O)c2c(n3nnnc13)-c1ccccc1CC21CCCC1,x,2

# Bioassay records: PubChem BioAssay, ICCB-Longwood Screening Facility, Harvard Medical School

# This is a subset, so the mix of outcomes need not match the whole.
